Screening data deposited in PubChem BioAssay by National Center for Advancing Translational Sciences (NCATS).
Rango-impB inh: qHTS Assay for Inhibitors of Rango (Ran-regulated importin-beta cargo) - Importin beta complex formation | Rango CFP/YFP FRET sensor + importin beta, 45 min | Potency, µM (highest dose often 92.2 µM), for the others: at the highest dose inhibition of complex formation | 0.031% of 340,000 active; active = rising FRET ratio curve, often small or poorly fitted; inconclusive = mostly compound fluorescence or quenching in the first reads; inactive = flat curves in all reads;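 note: potency is the fitted concentration of half-maximal effect; 0% = DMSO wells and 100% = buffer wells lacking importin beta; nearly all actives have a fitted effect of over 15% in size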
Target sequence (Q14974 whole entry, looked up): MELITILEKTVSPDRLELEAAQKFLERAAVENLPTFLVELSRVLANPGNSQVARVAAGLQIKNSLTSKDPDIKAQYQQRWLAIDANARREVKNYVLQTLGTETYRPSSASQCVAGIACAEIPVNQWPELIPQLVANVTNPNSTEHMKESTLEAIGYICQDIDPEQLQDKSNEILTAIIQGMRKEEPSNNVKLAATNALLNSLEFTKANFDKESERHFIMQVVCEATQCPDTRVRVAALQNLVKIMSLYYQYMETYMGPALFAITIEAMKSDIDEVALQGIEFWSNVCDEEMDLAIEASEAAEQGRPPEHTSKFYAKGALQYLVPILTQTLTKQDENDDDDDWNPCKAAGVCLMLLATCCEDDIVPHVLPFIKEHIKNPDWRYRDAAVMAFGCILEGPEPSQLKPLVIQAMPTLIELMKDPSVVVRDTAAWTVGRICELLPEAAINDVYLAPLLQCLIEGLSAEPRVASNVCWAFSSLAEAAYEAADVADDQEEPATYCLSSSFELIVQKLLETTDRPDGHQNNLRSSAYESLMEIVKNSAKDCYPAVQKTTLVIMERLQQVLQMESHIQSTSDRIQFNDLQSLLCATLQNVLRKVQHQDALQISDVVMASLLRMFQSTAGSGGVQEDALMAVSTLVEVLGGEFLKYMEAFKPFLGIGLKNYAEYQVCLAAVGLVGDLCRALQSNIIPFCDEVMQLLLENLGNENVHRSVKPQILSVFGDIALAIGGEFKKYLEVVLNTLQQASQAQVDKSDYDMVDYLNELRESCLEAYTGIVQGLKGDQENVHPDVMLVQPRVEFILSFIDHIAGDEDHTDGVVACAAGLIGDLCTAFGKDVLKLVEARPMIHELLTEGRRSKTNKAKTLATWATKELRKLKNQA
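FRET biosensor Rango (snurportin 1 IBB between N-terminal EYFP and C-terminal Cerulean), 50 nM in PBS/1 mM DTT/0.02% Tween-20/0.1% BSA, preincubated 5 min RT with compound; 0.125 microM importin beta added, 45 min RT, CFP/YFP FRET ratio read.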
GLA inh pH 4.5: qHTS Assay for Inhibitors of Human alpha-Galactosidase at pH 4.5 | Alpha-galactosidase A (Homo sapiens), P06280 | purified enzyme, 4-MU-alpha-Gal fluorescence, pH 4.5 | activity change, negative = inhibition, % at 105 µM | 230,000 tested, under 10 active; inconclusive = small, poorly fitted or top-dose-only inhibition, or a rising curve; inactive = flat fitted curve, though single readings scatter; no compound was filed as active;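 note: 0% = full activity with enzyme and -100% = basal without enzyme; dose as in the result columns while the protocol names 77 µM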
Rango release inh: qHTS Assay for Inhibitors of RanGTP induced Rango (Ran-regulated importin-beta cargo) - Importin beta complex dissociation; Snurportin-1 (Homo sapiens) + GTP-binding nuclear protein Ran (Homo sapiens) + Importin …; Biochemical FRET Rango-importin beta, RanGTP-induced dissociation; Potency, µM (top dose mostly 46.1 µM), for the others: at the highest dose activity change, negative = inhibition; 0.071% of 340,000 active; AID 540253, 2011; active means falling FRET ratio curve, often poorly fitted, with flat reads before Ran was added; inconclusive means other falling curves, or compound fluorescence or quenching; inactive means flat or rising ratio curve;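 note: potency is the fitted concentration of half-maximal effect; % of control where 0% means no effect; nearly all actives have a fitted effect of over 45% in size; -100% = wells without RanGTP and RCC1; the record marks most hits as doubtful in a second field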
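Compounds preincubate 5 min with complex of recombinant Rango and importin beta in PBS with 1 mM DTT. Ran (0.6 uM) loaded with 2 mM GTP plus 0.2 uM RCC1 starts dissociation; FRET is recorded 45 min later.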
miR-21 reporter: qHTS Assay for Modulators of miRNAs and/orActivators of miR-21; HeLa miR-21 FLuc reporter, luciferase, 48 h; Potency, µM (series often up to 38.3 µM), for inactives: at the highest dose reporter change, positive = more light; 340,000 tested, under 10 active; AID 2288, 2010; active = well fitted rising curve with a large enough effect; inconclusive = small, poorly fitted or top-dose-only effect; inactive = no such curve, though single readings can be large or run the other way;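 note: % of control where 0% means no effect; miR-21 action dims this reporter so a rising signal means less miR-21 action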
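HeLa miR-21-FLuc reporter line, endogenous miR-21; 2000 cells/well in DMEM/10% FBS; compound titration up to ~40uM final, 48 h, 37 degree Celsius; luciferase detection reagent, 15 min lysis, CCD luminescence.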
The depositor's hits bear a star; ? = inconclusive; . = no result given; & = joins results of further samples. Not all compounds are listed. The share of hits here may be higher or lower than overall.

Below each SMILES: Rango-impB inh	GLA inh pH 4.5	Rango release inh	miR-21 reporter
- CCN1C(=O)/C(=C2\SC(N3CCOCC3)=NC2=O)c2ccccc21
→ -2.4%	.	14%	-1%
- O=C(CC1SC(=O)N(Cc2ccc(Cl)cc2)C1=O)Nc1nccs1 (stereo not drawn)
→ 3.5%	8	28%	-1%
- O=C1[C@H](Cc2ccccc2)NCC=CC[C@H](c2ccc(Cl)cc2)N1Cc1ccccc1
→ -1.2%	.	14%	.
- COC(=O)Cn1cc(/C=C(/C#N)C(=O)N2CCOCC2)c2ccccc21
→ -3.5%	-6	0%	-3%
- O=C(N/C=N/O)C1=NOC(CNc2ncc(C(F)(F)F)cc2Cl)C1 (stereo not drawn)
→ -5.2%	-13	0%	-22%
- Cc1cccc(C(=O)Nc2c(C#N)c(C)c(C)n2Cc2ccccc2)c1
→ -1.3%	-7	-9%	-2%
- CC(=O)CCc1oc2ccccc2c1-c1ccccc1
→ 5.1%	2	16%	-5%
- COc1cc(NC(=O)COC(=O)CC(C)(C)C)c(C)cc1[N+](=O)[O-]
→ 5.7%	-2	3%	-7%
- CN(C)C1CCN(Cc2cc(COCc3ccccc3)c3cccnc3c2O)C1 (stereo not drawn)
→ -1.6%	.	-10%	.
- CN(C)CCCn1c(-c2ccccc2)nc(=S)c2c1CCCC2
→ -0.7%	-9	32%	0%
- CC1=C(C(=O)Nc2cc(C(=O)N3CCN(c4cccc(C)c4)C(C)C3)ccc2C)SCCO1 (stereo not drawn)
→ -0.8%	.	-4%	14%
- O=C(CNCc1ccccc1)Nc1ccccc1-c1ccccc1
→ -3.1%	-9	-12%	-5%
- CC(C)c1cc(CNC(=O)C2CCC(=O)N(CCc3ccc(Cl)cc3)C2)on1 (stereo not drawn)
→ -2.5%	.	-8%	1%
- Cc1ccc(NC(=O)COc2nsnc2N2CCOCC2)cc1Cl
→ 0.7%	.	-6%	0%
- Cc1ccc(-c2csc3ncnc(N4CCN(C)CC4)c23)cc1C
→ -0.1%	.	16%	3%
- CCc1c(C)nc2cc(-c3ccccc3)[nH]n2c1=O
→ 2.6%	.	3%	-47%
- N#Cc1c(NC(=O)c2nc3ncccn3n2)sc2c1CCCCC2
→ 0.8%	-1	2%	-41%
- Cc1ccc(NC(=O)C2CCN(C(=O)OC(C)(C)C)CC2)cc1S(=O)(=O)N1CCCCC1
→ 5.1%	.	0%	.
- Cn1c(CNC(=O)Cc2ccc3c(c2)OCO3)nnc1SCc1ccccc1
→ -2.1%	10	10%	-2%
- O=C(COc1ccccc1[N+](=O)[O-])Nc1ccc(CN2CCOCC2)cc1
→ 0.8%	-4	-4%	-23%
- Cc1oc(-c2cccs2)nc1CS(=O)CC(=O)NCc1ccc2c(c1)OCO2 (stereo not drawn)
→ -1.3%	14	1%	-5%
- COCc1cc(=O)[nH]c(SC)n1
→ 1.3%	-9	-1%	0%
- CCOc1ccc(NC(=O)CC2C(=O)N(c3ccccc3)C(=S)N2Cc2ccccn2)cc1 (stereo not drawn)
→ 0.2%	10	7%	2%
- CC(=O)Nc1nc(C(=O)O)cs1
→ 1.2%	2	-12%	2%
- CCCCn1c(SCC(=O)Nc2nnc(C)s2)nc2c1c(=O)n(C)c(=O)n2C
→ 1.4%	2	1%	4%
- Nc1cccc([N+](=O)[O-])c1
→ -0.1%	-2	11%	-2%
- COc1ccc(C2=NOC(Cn3nc(C(=O)NCc4ccc(OC(F)(F)F)cc4)cc3-c3ccccc3)C2)cc1 (stereo not drawn)
→ 1.7%	.	-20%	.
- Cc1ccc(C(=O)N/C(=C\c2ccc3c(c2)OCO3)C(=O)Nc2ccc(C(=O)O)cc2)cc1
→ ?	-8	1%	0%
- Cc1cccc(N2CCN(C(=O)c3ccccn3)CC2C)c1 (stereo not drawn)
→ -0.9%	0	-9%	-2%
- CCn1cc(C(=O)NCC2CCCO2)c2cc(OC)c(OC)cc2c1=O (stereo not drawn)
→ -1.8%	0	5%	-7%
- Cc1ccc(-n2cccn2)c(CN2CCC(CO)(CCc3ccccc3)CC2)c1
→ -1.6%	-4	0%	6%
- O=c1/c(=C\c2ccc(F)cc2)sc2n1CCCN=2
→ ?	2	9%	-55%
- O=C(O)C1CCCN1S(=O)(=O)c1ccc(Cl)cc1 (stereo not drawn)
→ -0.2%	.	-13%	-2%
- CCCCc1cc(=O)oc2cc(OCc3nn[nH]n3)c(Cl)cc12
→ -0.1%	-10	11%	0%
- CCOC(=O)Nc1sc2nc(C)cc(C)c2c1-n1cccc1
→ -2.6%	-1	-1%	16%
- COc1ccc(C2C(C(=O)Nc3cccnc3)=C(C)Nc3nc(-c4ccco4)nn32)cc1 (stereo not drawn)
→ 1.2%	-20	1%	-2%
- CN1CCN(C(=O)CCc2nnc3ccc(N4CCC5(CC4)OCCO5)nn23)CC1
→ -1.7%	.	27%	-2%
- Cc1ccc(OCCNC(=O)CCNS(=O)(=O)c2ccc(C)cc2)cc1
→ 0.9%	.	12%	.
- CCOC(=O)CNC(=O)C1CCC(CNS(=O)(=O)c2cccc3nsnc23)CC1 (stereo not drawn)
→ 0.7%	.	-1%	1%
- CC(=O)Oc1cccc(N2C(=O)C3CC=C(Cl)CC3C2=O)c1 (stereo not drawn)
→ -2.6%	7	1%	0%
- COc1ccc(C(c2sc3ncnn3c2O)N2CCN(c3ccccc3F)CC2)cc1OC (stereo not drawn)
→ -0.3%	4	-15%	-30%
- CC1CCN(C(=O)c2ccc(CSc3nc4ccncc4n3Cc3ccc(F)cc3)cc2)CC1
→ -5.2%	-9	-13%	14%
- CC(=O)N1CCN=C1SCc1ccc(C(F)(F)F)cc1
→ -4.9%	.	-3%	-1%
- Cc1ccc(C(=O)COC(=O)C(C)N2C(=O)C3C4CCC(C4)C3C2=O)cc1 (stereo not drawn)
→ -1.3%	.	-6%	0%
- COC(=O)c1cc2sccc2n1CC(=O)Nc1ccc(OC)c(OC)c1OC
→ 5.2%	1	1%	-3%
- COc1ccc(OC)c(N2C(N)=NC(N)=NC23CCCC3)c1
→ -3.7%	10	-1%	-1%
- O=C(Cc1ccc(Cl)cc1)Nc1ccc2oc(-c3ccncc3)nc2c1
→ 3.6%	-3	25%	0%
- Fc1ccccc1N1CCN(c2cnc3ccccc3n2)CC1
→ -2.2%	0	-1%	-24%
- Cc1ccc(NC(=S)NCc2ccco2)c(C)c1
→ -0.2%	3	2%	2%
- O=C(Nc1cc(S(=O)(=O)N2CCCCC2)ccc1N1CCCCC1)C1CC1
→ 0.8%	3	11%	0%
- CNS(=O)(=O)c1cccc(C(=O)OCC(=O)Nc2ccccc2F)c1
→ 3.3%	4	7%	-2%
- CCc1cc2c(=O)c(-c3cnn(-c4ccccc4)c3)c(C)oc2cc1OCC(=O)Nc1ccc(F)c(F)c1
→ -0.8%	1	-13%	-1%
- COc1cc(NC(=S)N2CCCCC2C)c(OC)cc1Cl (stereo not drawn)
→ -0.2%	5	6%	-10%
- CC(=O)c1sc2nc(=O)c(C)nn2c1C
→ 1.9%	3	3%	-3%
- CCOc1ccc(CCNC(=O)CN(C)S(=O)(=O)c2cccs2)cc1OCC
→ -2.7%	.	15%	.
- C=CCOC(=O)C1=C[C@H](c2ccc(C(F)(F)F)cc2)C[C@H](OCCCCO)O1
→ -1.6%	.	0%	.
- Cc1c(CCC(=O)N[C@@H](CCCNC(N)=O)C(=O)O)c(=O)oc2cc3oc4c(c3cc12)CCCC4
→ 0.2%	.	-5%	20%
- CC(C)N(Cc1nc(-c2ccc(Cl)cc2)no1)Cc1nccn1C
→ -0.3%	9	-9%	-1%
- Cc1cccc(NC(=O)C2CCN(S(=O)(=O)c3ccc4c(c3)OCCCO4)CC2)n1
→ -1.7%	.	-19%	.
- CC(C)CN1C(=O)C(=O)N(CC(=O)N(C)CC(=O)Nc2ccc(Cl)c(C(F)(F)F)c2)C1=O
→ 0.1%	.	1%	.

Copied from the list.
For Rango release inh, Cc1c(CCC(=O)N[C@@H](CCCNC(N)=O)C(=O)O)c(=O)oc2cc3oc4c(c3cc12)CCCC4 has the entry -5%
For miR-21 reporter, CC(=O)N1CCN=C1SCc1ccc(C(F)(F)F)cc1 has the entry -1%

Some of these compounds in order of length of the SMILES, falling:
Below each SMILES: Rango-impB inh	GLA inh pH 4.5	Rango release inh	miR-21 reporter
- C=CCOC(=O)C1=C[C@H](c2ccc(C(F)(F)F)cc2)C[C@H](OCCCCO)O1
→ -1.6%	.	0%	.
- Cc1cccc(NC(=O)C2CCN(S(=O)(=O)c3ccc4c(c3)OCCCO4)CC2)n1
→ -1.7%	.	-19%	.
- COc1ccc(C(c2sc3ncnn3c2O)N2CCN(c3ccccc3F)CC2)cc1OC (stereo not drawn)
→ -0.3%	4	-15%	-30%
- CNS(=O)(=O)c1cccc(C(=O)OCC(=O)Nc2ccccc2F)c1
→ 3.3%	4	7%	-2%

(further entries)
Below each SMILES: Rango-impB inh	GLA inh pH 4.5	Rango release inh	miR-21 reporter
- O=C1OC(/C=C/c2ccc(Cl)cc2)=NC/1=C/c1ccco1
→ ?	2	20%	-4%
- S=C(Nc1ccccc1)c1ccccn1
→ 1.1%	7&11	-6%	-40%&-37%
- CCn1cc(C(=O)NCCCN(C)c2ccccc2)c(=O)c2cc(S(=O)(=O)N(C)C)ccc21
→ -0.6%	-9	0%	-5%
- CC1CN(C(=O)c2ccc3c(c2)OCO3)OC(c2ccccc2)O1 (stereo not drawn)
→ 2.9%	-8	-5%	-5%
- Cc1nc(-c2c(-c3ccc(O)cc3O)noc2C(F)(F)F)cs1
→ 0.7%	-17	-2%	7%
- CC(=O)Nc1ccc(S(=O)(=O)Nc2nc3ccccc3nc2Nc2cccc(O)c2)cc1
→ -0.9%	-1	-5%	1%
- COc1ccc(NC(=O)C2CCN(C(=O)Cc3ccccc3)CC2)c(OC)c1
→ -0.3%	2	-10%	3%
- CCCCNC(=S)Nc1cccc2cnccc12
→ 3.9%	3	4%	-3%
- Cc1cccc(C(=O)N(C(=O)c2cccc(C)c2)N(C)C)c1
→ 2.3%	.	-6%	.
- O=c1cc(CSc2ccc(Cl)cc2)nc(-c2ccccn2)[nH]1
→ 0.1%	.	-1%	?
- COc1ccc(OC)c(CN2CCN(CCc3ccccc3)C(CCO)C2)c1 (stereo not drawn)
→ -0.5%	-6	-13%	-5%
- N#CCC(=O)Nc1ccc(C(=O)NCCC(c2ccccc2)c2ccccc2)cc1
→ ?	.	-20%	-9%
- CCc1nnc(NC(=O)CSc2sc3c(O)cc(=O)[nH]c3c2C#N)s1
→ ?	.	-9%	0%
- CC(=O)Nc1ccc(NC(=O)c2ccccc2CC[N+](=O)[O-])cc1
→ -2.5%	4	-12%	-8%
- CC(=O)N1c2ccc(S(=O)(=O)N3CCCCC3)cc2CC1C(=O)Nc1ccc(F)cc1C (stereo not drawn)
→ -2.4%	.	-15%	3%
- CCC1C(=O)N=C(SCC(=O)Nc2ccccc2)NC1=O (stereo not drawn)
→ -2.6%	1	3%	-2%
- Cc1ccccc1OCC(=O)Nc1nnc(-c2ccncc2)s1
→ 0.7%	-16	9%	-3%
- COc1ccc(NC(=O)c2c(NC(=O)CNCc3ccco3)sc3c2CCC3)cc1
→ 1.0%	12	11%	3%
- CCOCCOC(=O)C(C)Oc1ccc(Oc2nc(Cl)ccc2Cl)cc1 (stereo not drawn)
→ 0.8%	-2	15%	1%
- Cc1ccc(S(=O)(=O)CC(=O)Nc2cc(C)on2)cc1
→ 2.8%	.	?	-3%
- Cc1ccc(S(=O)(=O)N(C)C)cc1NC(=S)NC1CCCC(C)C1C (stereo not drawn)
→ -2.5%	-10	28%	12%
- CCn1cc(C(=O)NCCCN2CC(C)CC(C)C2)c2cc(OC)c(OC)cc2c1=O (stereo not drawn)
→ 0.3%	-9	-12%	-1%
- O=[N+]([O-])c1ccc(N2CCOCC2)cc1SCc1ccco1
→ -6.6%	-13	-3%	-29%
